Screening results deposited in PubChem by ICCB-Longwood Screening Facility, Harvard Medical School.
HCMV UL50-53 inh = inhibitors of HCMV UL50-UL53 interaction, biochemical, HTRF; HCMV UL50-UL53 nuclear egress complex (human cytomegalovirus); normalized percent inhibition; inhibition, % (concentration not given with the values); hit rate 0.15% among 190,000; AID 1918969, 2023;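 active means both replicates at 50% or more, plus weaker picks with an unusually low signal ratio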;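 further: stock transfer was 100 nL into about 20 µL; 0% = negative control wells and 100% = wells with untagged competitor protein; inactives centre near -12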
Sa growth inh = S. aureus growth inhibition at 42 and 30 °C, primary screen, LtaS inhibitor project, RN4220, two temperatures; OD600, 20 h, 42 °C; hits give low values; relative growth, % (no concentration beside the values); hit rate 0.53% among 170,000; AID 720641, 2013;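 active means growth at 42 °C up to 50% and 20 or more points under that at 30 °C, or under 10% at both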;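 further: 300 nL library stock went into each well; scaled to the means of positive and negative controls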
GIV Gai3 FP = inhibitors of GIV peptide binding to Galpha-i3, primary screen, biochemical, fluorescence polarization, FITC-GIV GBA peptide, rat Galphai3; 90 min; hits give low values; scaled: aluminum fluoride 0%, vehicle 100%; hit rate 0.42% among 210,000; percent of control (FP), % (no concentration beside the values); Guanine nucleotide-binding protein G(i) subunit alpha-3 (Rattus norvegicus), P08753;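 active means replicate mean at 85% of control or lower, very high polarization wells dropped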;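 further: wells of about 15 µL received 100 nL stock; the first replicate is given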
Target sequence (P08753 whole entry, looked up): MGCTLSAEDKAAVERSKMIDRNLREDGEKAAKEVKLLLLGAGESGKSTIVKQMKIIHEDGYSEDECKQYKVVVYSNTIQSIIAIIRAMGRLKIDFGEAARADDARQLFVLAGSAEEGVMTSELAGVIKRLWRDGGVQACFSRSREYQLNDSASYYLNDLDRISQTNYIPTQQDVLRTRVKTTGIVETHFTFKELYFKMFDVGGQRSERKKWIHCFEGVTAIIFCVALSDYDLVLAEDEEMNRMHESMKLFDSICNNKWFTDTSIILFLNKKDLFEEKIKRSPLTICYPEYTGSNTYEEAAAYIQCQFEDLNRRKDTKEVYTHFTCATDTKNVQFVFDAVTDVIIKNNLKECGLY
Sa growth inh second temp = also measured in Sa growth inh; calls as there; relative growth, %; measured here: growth at 30 °C;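 optical density after 20 h as mean of two plates; 100% = untreated growth and lower means inhibition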
The depositor's hits bear a star; . = not tested or not shown; & = joins results of further samples.

SMILES	HCMV UL50-53 inh	Sa growth inh	Sa growth inh second temp	GIV Gai3 FP
O=C(O)C1CCC(=O)N1C(=O)/C=C/c1ccccc1 (stereo unspecified)	-27	98	80	99
CN1C(=O)c2ccccc2C(C(=O)Nc2ccc(F)c(Cl)c2)C1c1c[nH]c2ccccc12 (stereo unspecified)	.	106	97	102
O=C(Cn1ncc2c1-c1ccccc1OC2)NCc1cccs1	.	98	83	104
O=C(NC1CC1)c1ccc2ccccc2n1	-22	119	103	.
CS(=O)(=O)N1CCN(c2cccc(Cl)c2)CC1	-15	100	81	.
Cc1ccc(S(=O)(=O)[C@H]2CS(=O)(=O)C[C@@H]2NCCc2ccc(S(N)(=O)=O)cc2)cc1	-8	.	.	99
CC(C)(C)c1ccc(OCC(=O)N2CCC(c3nc4ccccc4s3)CC2)cc1	-27	104	84	99
COCc1cc(C)nc2sc3c(c12)NC(c1ccc(O)cc1)N(c1ccc(C)cc1)C3=O (stereo unspecified)	-41	105	75	103
CCOc1ccccc1CNS(=O)(=O)c1ccc2c(c1)C(C)(C)C(=O)N2C	.	100	92	106
O=C(CSc1ccccc1C(=O)NCCCN1CCCC1=O)NCc1ccco1	2	75	91	.
COC(=O)c1csc(S(=O)(=O)NCc2nn(-c3ccccc3)nc2C)c1OC	0	119	94	117
Cc1ccc(C(=O)NCC(c2cccs2)S(=O)(=O)c2cccs2)cc1C (stereo unspecified)	.	142	96	103
O=C1N(c2ccccc2)C(c2ccco2)C1(F)F (stereo unspecified)	7	79	98	.
Cc1ccc(NC(=O)NCCCN2CCOCC2)cc1	-4	120	103	105
Cn1c(=O)c2sccc2n2c(CCCC(=O)N3CCN(c4ccccn4)CC3)nnc12	-6	.	.	107
O=C(Nc1ccccc1C(F)(F)F)c1cc(-c2ccc3c(c2)OCCO3)on1	8	100	97	99
CCOC(=O)c1cnn(C(C)(C)C)c1C1CCN(C(=O)OC(C)(C)C)CC1	0	106	95	110
Cc1cccc(-c2nc3nc(C)cc(N(CCO)Cc4ccccc4)n3n2)c1	-23	.	.	101
O=C(Cc1cc2ccccc2[nH]1)NC(C(=O)Nc1ccc2c(c1)OCO2)c1ccccc1 (stereo unspecified)	-6	99	77	101
Cc1ccc(N2CCN(c3ccc(C)cc3)C2c2ccncc2)cc1	.	121	85	105

3 compounds from above, sorted by number of heavy atoms, lowest first:
SMILES	HCMV UL50-53 inh	Sa growth inh	Sa growth inh second temp	GIV Gai3 FP
O=C1N(c2ccccc2)C(c2ccco2)C1(F)F (stereo unspecified)	7	79	98	.
Cc1ccc(N2CCN(c3ccc(C)cc3)C2c2ccncc2)cc1	.	121	85	105
O=C(Nc1ccccc1C(F)(F)F)c1cc(-c2ccc3c(c2)OCCO3)on1	8	100	97	99

Another view of some results above:
| SMILES | HCMV UL50-53 inh | Sa growth inh | Sa growth inh second temp | GIV Gai3 FP |
| --- | --- | --- | --- | --- |
| COC(=O)c1csc(S(=O)(=O)NCc2nn(-c3ccccc3)nc2C)c1OC | 0 | 119 | 94 | 117 |
| Cc1ccc(C(=O)NCC(c2cccs2)S(=O)(=O)c2cccs2)cc1C (stereo unspecified) | . | 142 | 96 | 103 |
| O=C1N(c2ccccc2)C(c2ccco2)C1(F)F (stereo unspecified) | 7 | 79 | 98 | . |
| Cc1ccc(NC(=O)NCCCN2CCOCC2)cc1 | -4 | 120 | 103 | 105 |
| Cn1c(=O)c2sccc2n2c(CCCC(=O)N3CCN(c4ccccn4)CC3)nnc12 | -6 | . | . | 107 |
| O=C(Nc1ccccc1C(F)(F)F)c1cc(-c2ccc3c(c2)OCCO3)on1 | 8 | 100 | 97 | 99 |

Other results:
SMILES	HCMV UL50-53 inh	Sa growth inh	Sa growth inh second temp	GIV Gai3 FP
CCc1ccccc1S(=O)(=O)Cc1ccc(C(=O)NC(C)C)o1	-9	108	91	103
O=C(CNc1ccccc1C(=O)NCc1ccco1)Nc1ccccc1Cl	-15	103	92	.
CC1Cn2c(nnc2-c2cc3ccccc3cc2O)S1 (stereo unspecified)	-40	106	107	105
Cc1ccccc1-n1ncc(C(=O)O)c1C	-12	92	85	103
COC(=O)c1cc2sccc2n1Cc1nc(-c2cccc(Br)c2)oc1C	-20	114	97	106
Cn1cnc2c(NCc3ccccc3)nc(NCCO)nc21	-8&-28&-28&0&-20	.	.	100
CCN1CC2=C(OC(N)=C(C#N)C2c2cccs2)/C(=C\c2cccs2)C1 (stereo unspecified)	-60	92	67	193
CCOC(=O)c1cc(C)n(CC2CCC(C(=O)Nc3ccc(C(C)=O)cc3)CC2)c1C (stereo unspecified)	.	141	92	102
Cc1ccc(C(=O)CSc2nccn2-c2ccccc2)cc1	-1	.	.	97
COc1ccc(-c2ccc(CNC(C)C)o2)cc1Cl	-27	.	.	106
c1cncc(-c2nc(NCC3CCCO3)c3ccccc3n2)c1 (stereo unspecified)	12	98	98	.
O=C(CCS(=O)(=O)c1cc2c(cc1Cl)NC(=O)CO2)NCCc1ccc(Cl)cc1	.	99	94	109
O=C(Nc1ccc(CCC(=O)N2CCCC2)cc1)c1cc2ccccc2o1	-24	97	90	109
COc1ccc(-n2ccn3c(CC(C)(C)CC(=O)O)nnc3c2=O)cc1	9	87	89	104
c1coc(CSCc2cn3cccnc3n2)c1	-9	110	93	.
Cc1cc(-c2cc(S(=O)(=O)NCC3CCCO3)c(C)s2)on1 (stereo unspecified)	-20	.	.	102
C=CCn1c(C)cc(-c2csc(CC#N)n2)c1C	-39	68	74	.
Cc1sc2c(c1C)c(=O)n(Cc1ccccc1)c(=O)n2Cc1ccc(F)cc1	-3	95	85	102
CC(C)(C)C(=O)/C=C1\SCC(=O)N1CC(=O)Nc1ccccc1C#N	1	107	99	.
COc1ccccc1Nc1nc(N)c(C(=O)c2c[nH]c3ccccc23)s1	5	.	.	132
CC(C)c1ccc(NC(=O)C2CCC(CNS(=O)(=O)c3cccc4cccnc34)CC2)cc1 (stereo unspecified)	.	99	90	99
O=C(CN1CCC(n2nnc3ccccc32)CC1)Nc1cccc(F)c1	-3	120	92	104
CC(=O)OCC(=O)[C@@]1(O)CC[C@H]2[C@@H]3CCC4=CC(=O)CC[C@]4(C)[C@H]3[C@@H](O)C[C@@]21C	1&-36	95	91	107
CCc1ccc(S(=O)(=O)c2cn(C)c3cc(OC)c(OC)cc3c2=O)cc1	-3	95	85	111
COc1cc2nc(CN3CCCC3c3cccs3)[nH]c(=O)c2cc1OC (stereo unspecified)	-19	100	94	.
Cc1cccc(-n2ncc3c(N(CC(C)C)CC(C)C)ncnc32)c1	.	120	91	106
COc1cc(/C=N/OCC(=O)N2CCN(C(C)=O)CC2)ccc1OC(F)F	-4	102	98	.
Cc1ccc(NC(=O)Cn2nnc(-c3nc(-c4ccncc4)no3)c2N)c(C)c1	.	109	92	107
CCOc1ccc(-c2nc(CNC(=O)Nc3ccc(Cl)cc3)c(C)o2)cc1	-26	.	.	105
COc1ccc(NC(=O)COC(=O)C2CC(=O)N(Cc3ccc(C)cc3)C2)cc1 (stereo unspecified)	7	99	98	.
COc1cccc(C2Nc3ccccc3C(=O)N2NS(=O)(=O)c2ccc(C)cc2)c1O (stereo unspecified)	-26	90	76	107
COc1ccc(C2CC(C(F)(F)F)n3nc(C(=O)NCCc4ccccc4)c(Cl)c3N2)cc1OC (stereo unspecified)	-12	.	.	94
CC(C)N1CC(COc2ccccc2Cl)OC1=O (stereo unspecified)	-9	102	89	98
Cc1cccc(CN2CCN(CC(=O)N3CCN(c4ccccn4)CC3)C(=O)C2=O)c1	-38	.	.	110
CCCN1C(=O)C2C(C(=O)Nc3cccc(OC)c3)C3C=CC2(O3)C1C(=O)NC1CCCCC1C (stereo unspecified)	-12	105	87	97
CCC(=O)Nc1ccccc1-c1nc2ccccc2[nH]c1=O	-35&-13	87	95	106&104
Cc1cc(NC(=O)/C=C/c2ccco2)n(-c2nc3ccccc3n2Cc2ccc(Cl)c(Cl)c2)n1	-19	96	96	.
c1ccc(-c2ncsc2-c2ccccc2)cc1	-3	101	92	.
Cn1ncc2nnn(-c3ccccc3)c(=O)c21	-14	86	90	104
CCCCc1nc2c(=O)[nH]c3ccccc3c2o1	7	98	91	103
Cc1cccc(Cn2c(=O)n(CCc3ccccc3)c(=O)c3c(C)c(C)sc32)c1	-15	102	89	99
COc1nc(Oc2nc(OC)nc(N3CCCC3)n2)nc(N2CCCC2)n1	-2	119	85	103
Cc1ccc(-n2c(SCC(=O)O)nc3sc4c(c3c2=O)CCCC4)cc1	-50	102	81	103
Cc1ccc(OCCN2C(=O)C(C)N(c3ccc(C)cc3)C2=O)cc1 (stereo unspecified)	-13	103	99	.
COc1ccc(NC(=O)CN(C)S(=O)(=O)c2ccc3c(c2)CCCN3C(C)=O)cc1Cl	.	98	89	102
CN=c1scc(-c2ccc3c(c2)OCCO3)n1/N=C/c1c[nH]c2ccccc12	-30	68	64	.
O=c1nc2cc3[nH]c4c(=O)c5ccccc5c4[nH]c3cc2n1	-64	97	91	95
CC(c1ccccc1)N1C(=O)CC(Nc2ccc(N(C)C)cc2)C1=O (stereo unspecified)	-41	49	62	97
Cc1ccc(C(=O)Nc2cccc(N3CCCC3)c2)cc1	4	117	77	111
CCC(=S)/C=C1\Sc2ccc(OC)cc2N1CC	.	87	68	108
(next part)
SMILES	HCMV UL50-53 inh	Sa growth inh	Sa growth inh second temp	GIV Gai3 FP
CCOc1cc(/C=C2\N=C(c3ccccc3)OC2=O)cc(Br)c1OC(C)=O	-10	.	.	114
Cn1nc(C(=O)NCCC2=CCCCC2)c2c1-c1ccccc1OC2	-8	.	.	103
CS(=O)(=O)N1CCC(c2nc3c(nnn3Cc3ccc(F)cc3)c(=O)[nH]2)CC1	1	97	69	104
COc1ccc(N(C(=O)c2ccc(C)cc2)S(=O)(=O)c2ccc(Cl)cc2)cc1	-37	93	77	104
Cc1ccccc1CSc1nc2cc(C(=O)NC3CCCC3)ccc2c(=O)n1Cc1ccccc1	.	112	85	99
Cc1ccc(-c2cnc(C3CC3)o2)cc1S(=O)(=O)Nc1cccc(C)c1C	.	97	93	100
O=c1[nH]c(SCc2ccc(Cl)cc2)nc2nc[nH]c12	3	.	.	105
CCCc1cnc2c(c1SCC(=O)Nc1ccc([N+](=O)[O-])cc1)c(=O)n(C)c(=O)n2C	.	167	95	104
CCn1c(SCC(=O)N2CCCC2)nnc1-c1c[nH]c2ccccc12	.	110	82	105
CCc1nnc(NC(=O)c2nc(SCc3ccc(F)cc3)ncc2Cl)s1	-47	80	40	97
NC(=O)CSc1nc(=O)n(Cc2cccnc2)c2c1CCC2	-4	92	96	110
COc1ccc(NC(=O)CSCC(=O)O)c(N2CCOCC2)n1	-38	87	83	99
COC(=O)c1ccc(S(=O)(=O)N(CCO)Cc2ccccc2)n1C	-17	95	92	105
Cc1ccc(C(=O)C2N=C(N)OC2c2ccccc2)cc1 (stereo unspecified)	-10	110	107	93
Cc1cccc(N2CCN(C(=O)C(C)n3nc(C)n4c(cc5occc54)c3=O)CC2)c1C (stereo unspecified)	-13	104	92	104
CC(C)(C)c1ccc(-c2nc(C#N)c(NCc3ccccc3)o2)cc1	-4	112	73	104
CN1C/C(=C\c2ccccc2F)C(=O)/C(=C/c2ccccc2F)C1	12	83	93	.
COC(=O)C(C)Sc1nc2ccccc2[nH]1 (stereo unspecified)	-7	.	.	105
Cc1cccc(CC2S/C(=N\c3ccccn3)NC2=O)c1 (stereo unspecified)	-4	.	.	105
COC(=O)c1ccc(CSc2nnc(-c3ccc4ncccc4c3)n2C)cc1	-17	68	85	94
CCOc1ccc(C2C(=O)N(C3CCCCC3)CC(=O)N2Cc2ccc(F)cc2)cc1OC (stereo unspecified)	.	99	90	97
COC1OC2COC(C2O)C1O (stereo unspecified)	-8	88	89	.
CC1CCCN(CCCNC(=O)c2ccc3c(c2)N(Cc2ccccc2F)C(=O)c2ccccc2S3(=O)=O)C1 (stereo unspecified)	13	99	77	100
CCc1ccc(Sc2cc(C(=O)NCCCN3CCC(C)CC3)c3ccccc3n2)cc1	.	125	84	95
COc1ccc(N2CCN(C(=O)c3ccc4c(Cl)c5c(nc4c3)CCCC5)CC2)cc1	5	95	90	105
CC1CCN(Cc2ccc(N)cc2)CC1	-6	119	90	.
COc1ccc(S(=O)(=O)NCC(c2ccco2)S(=O)(=O)c2ccc(C)cc2)cc1F (stereo unspecified)	.	138	81	102
COC(=O)c1sc2nc(SCc3ccccc3C)n(N)c(=O)c2c1C	.	90	87	105
CCN(CC)CCSc1nnc2c3ccccc3n(CC(N)=O)c2n1	.	119	90	92
COc1ccccc1C(=O)COC(=O)C(C)N=C1NS(=O)(=O)c2ccccc21 (stereo unspecified)	2	102	96	.
Cc1ccc(N(CC(=O)Nc2ccc(Br)c(C)c2)S(=O)(=O)c2cccs2)cc1	-5	110	76	104
Cc1ccc(NC(=O)CN2CCCn3nc(C)cc32)c(C)c1	-23	.	.	100
CCOCC(=O)Nc1c(C(=O)Nc2ccc(OCC)cc2)oc2ccccc12	-9	103	99	110
CCOC(=O)c1cc(-c2ccn[nH]2)on1	0	97	106	108
O=C(CCc1c[nH]c2ccccc12)N1CCN(c2ccc(-c3noc(C4CC4)n3)cc2)CC1	-32	.	.	104
N#CCS(=O)(=O)c1ccc(Cl)cc1	-14	73	84	.
